T cruzi repl = inhibitors of intracellular T. cruzi growth, primary screen, luminescence, NIH3T3 host cells | inhibition, % (concentration not given with the values) | AID 1885, 2009 | hit rate 1.4% among 300,000 | T. cruzi beta-gal in NIH3T3, 90 h;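 active means mean inhibition across valid replicates above about 55%, limit read from the data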;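 further: signal also drops with host cell toxicity which is not excluded here; 0% = plate median of DMSO wells and 100% = zero luminescence signal; higher percent means less beta-gal luminescence so fewer parasites; stock transfer was 50 nL into about 50 µL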
FGF22 binding = binders of human FGF22 protein, primary screen, FGF22 synaptogenesis inhibitor project, biophysical, thermal shift, single point. Fibroblast growth factor 22 (Homo sapiens), Q9HCT0. recombinant FGF22 thermal shift, SYPRO orange fluorescence; percent of sucrose octasulfate shift, DMSO zero. calls only at 9.99 µM. hit rate 1.5% among 340,000. AID 651658, 2012;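 active means melting point raised past a set limit in the mean and every replicate; three in four hits are not shown here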
Target sequence (Q9HCT0 whole entry, looked up): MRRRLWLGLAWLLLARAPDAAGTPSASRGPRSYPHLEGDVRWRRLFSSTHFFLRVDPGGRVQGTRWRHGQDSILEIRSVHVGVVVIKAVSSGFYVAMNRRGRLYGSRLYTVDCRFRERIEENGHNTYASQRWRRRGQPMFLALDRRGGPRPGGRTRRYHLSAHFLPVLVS
MLL AF4-AF9 inh = inhibitors of AF4 peptide binding to AF9, primary screen, biochemical, AlphaScreen, biotin-AF4 peptide, FLAG-AF9, single point. Protein AF-9 (Homo sapiens), P42568. inhibition, % at 10 µM. hit rate 0.47% among 350,000. AID 651704, 2012;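 active means every replicate reaching a set inhibition limit, whatever the replicate mean, cut at about 25% in these data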;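 further: 0% = plate neutral control median and 100% = total signal loss; the record names both 10 and 1 µM as test concentration; the first replicate is given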
Target sequence (P42568 whole entry, looked up): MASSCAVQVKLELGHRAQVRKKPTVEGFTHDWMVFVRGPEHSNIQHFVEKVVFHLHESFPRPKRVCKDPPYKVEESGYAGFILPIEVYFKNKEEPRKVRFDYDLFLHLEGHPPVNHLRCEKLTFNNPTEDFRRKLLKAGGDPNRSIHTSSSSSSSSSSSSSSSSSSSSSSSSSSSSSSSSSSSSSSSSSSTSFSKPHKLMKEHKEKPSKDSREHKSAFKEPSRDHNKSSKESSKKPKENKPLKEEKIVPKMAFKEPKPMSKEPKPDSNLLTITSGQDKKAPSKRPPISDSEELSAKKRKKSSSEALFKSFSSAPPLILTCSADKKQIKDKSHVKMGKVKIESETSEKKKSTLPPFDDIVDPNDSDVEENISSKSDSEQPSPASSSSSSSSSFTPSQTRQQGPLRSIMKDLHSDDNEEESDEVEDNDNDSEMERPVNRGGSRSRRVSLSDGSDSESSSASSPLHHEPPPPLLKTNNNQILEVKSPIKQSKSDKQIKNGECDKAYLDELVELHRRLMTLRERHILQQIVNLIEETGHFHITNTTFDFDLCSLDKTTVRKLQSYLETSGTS
UCH37 DUB inh = inhibitors of human UCH37 deubiquitinase, primary screen, biochemical, Ub-AMC cleavage, fluorescence; Ubiquitin carboxyl-terminal hydrolase isozyme L5 (Homo sapiens), Q9Y5K5; purified proteasome/UCH37; inhibition, % (test concentration not listed); hit rate 0.33% among 330,000; AID 588478, 2011;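 active means mean of two replicates above 20%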;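 further: 0% = compound-free wells with enzyme and 100% = wells lacking proteasome; stock transfer was 100 nL into about 20 µL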
Target sequence (Q9Y5K5 whole entry, looked up): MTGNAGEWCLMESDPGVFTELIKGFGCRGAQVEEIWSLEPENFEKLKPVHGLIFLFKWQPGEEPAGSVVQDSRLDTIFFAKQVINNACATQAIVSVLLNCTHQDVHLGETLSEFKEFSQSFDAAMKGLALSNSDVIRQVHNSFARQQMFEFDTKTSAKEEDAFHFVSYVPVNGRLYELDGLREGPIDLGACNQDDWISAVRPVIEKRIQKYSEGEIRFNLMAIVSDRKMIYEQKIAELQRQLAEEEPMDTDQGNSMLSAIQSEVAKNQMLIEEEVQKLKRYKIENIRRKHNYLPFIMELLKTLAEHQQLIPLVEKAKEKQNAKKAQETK
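system = Proteasome-associated human UCH37 deubiquitinase | amount = 0.15 nM proteasome as dispensed | medium = pH 7.4 Tris-HCl (50 mM) with ovalbumin, ATP-MgCl2, DTT | incubation = 30 min preincubation with enzyme, 25 min cleavage at room temperature | detection = AMC fluorescence 355/460 nm | read-out basis = percent inhibition | controls = no-proteasome and no-compound wells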
rRNA inh HTS = reduced GFP signal of wild-type E. coli, primary screen, bacterial rRNA inhibitor project, GFP/RFP fluorescence, OD600, single point | E. coli WT GFP vs humanized-ribosome RFP mutants, 24 h; hits give low values; DMSO median 0, no signal -100 | GFP signal change (wild-type ribosome), % (concentration not given with the values) | hit rate 1.6% among 350,000 | AID 720706, 2013;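 active means significant combined selectivity score with lowered wild-type GFP, culture density cut under 30%, mutant RFP and density less affected; inactive means any of these conditions unmet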; further: one replicate is shown; some compounds called inactive have numbers as strong as hits
A1 inh = caspase 3/7 activation in MEF A1-2A-BIM cells, primary screen, A1 inhibitor project, cell-based, luminescence, HTS | caspase activation, % (concentration not given with the values) | Caspase-Glo 3/7 luminescence, 3 h; percent of clofoctol response, vehicle zero | hit rate 0.066% among 330,000;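 active means over half of replicate activation scores above 10%, or exactly half above 10 with the replicate mean above 10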;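 further: wells of about 30 µL received 50 nL stock; many hits fall short of the cut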
Ecoli growth = E. coli growth inhibition, primary screen, OD600; Escherichia coli growth, 23 h; hits give low values; hit rate 0.21% among 330,000; OD600 absorbance (concentration not given with the values);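 active means OD600 absorbance below the run mean of sample wells minus 3.6 SD, in any replicate, cut at about 0.56 in these data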;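 further: stock transfer was 300 nL into about 60 µL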
Beta cell apopt = inhibitors of cytokine-induced beta cell apoptosis, primary screen, luminescence; INS-1E cytokine-induced death, ATP luminescence, 48 h; percent of positive-control rescue, neutral wells zero; hit rate 0.8% among 300,000; protection from apoptosis, % (concentration not given with the values);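 active means all replicates at 75% or more, or half of them and the mean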;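 further: 0% = cytokine-treated negative control wells and 100% = positive control rescue; higher means more ATP so stronger rescue from cytokine killing; wells of about 40 µL received 100 nL stock; the first replicate is given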
rRNA inh HTS OD600 = second read-out of rRNA inh HTS, no call of its own (marks repeat the call); OD600 change, %; measured here: OD600 growth;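 optical density of the mix in the first replicate; 0 = DMSO median and -100 = no signal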
rRNA inh HTS RFP = also measured in rRNA inh HTS; calls as there; RFP signal change, %; measured here: RFP humanized mutant strains;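 first replicate; 0 = DMSO median and -100 = no signal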
The depositor's hits bear a star; i = inactive; . = not tested or not shown; & = joins results of further samples. Only part of the results is shown. The share of hits here may be higher or lower than overall.

SMILES	T cruzi repl	FGF22 binding	MLL AF4-AF9 inh	UCH37 DUB inh	rRNA inh HTS	rRNA inh HTS OD600	rRNA inh HTS RFP	A1 inh	Ecoli growth	Beta cell apopt
C[C@@H]1CN([C@@H](C)CO)C(=O)c2cc(NC(=O)C3CC3)ccc2O[C@@H]1CN(C)Cc1ccc(Cl)c(Cl)c1	.	i	4.2&5.4	4.1	-13&-22	-54&-64	-3.2&-4.1	0.2	0.69	-5
COc1ccc(NC(=O)CSc2nc3nc(-c4cccs4)cc(C(F)(F)F)c3c(=O)[nH]2)c(OC)c1	-22	.	.	-28	.	.	.	-0.2	0.67	-3
O=C(Nc1cccnc1)c1cc2c(ccc3ccccc32)o1	-11	.	.	-119	.	.	.	-0.1	0.68	-4
CC(C)c1nc2oc3c(NCC4CCCO4)ncnc3c2c2c1CCC2 (centres undefined)	17	.	.	-27	.	.	.	1.0	0.71	8
CC(OC(=O)C1CC(=O)N(Cc2ccco2)C1)C(=O)Nc1ccc(F)cc1Cl (centres undefined)	.	i	1.8	2.5	8	2	-1.2	0.8	0.68	-4
COc1cccc(OC)c1C(=O)Nc1ccc2nc(C)c(C)nc2c1	-8	i	-1.5	-25	3	5	3.0	-0.5	0.68	-2
COc1cc(C2Nc3c(F)cccc3C3C=CCC32)cc(Br)c1OC (centres undefined)	-11	i	1.2	5.6	13	9	11	-0.2	0.73	1
O=S(=O)(NCCSc1nnnn1-c1ccccc1)c1cccs1	1	.	.	-0.2	.	.	.	0.2	0.78	.
Cc1ccc(S(=O)(=O)N2CCN(C)CC2)cc1[N+](=O)[O-]	3	i	6.3	1.1	15	13	-9.9	0.5	0.73	-10
Cc1noc(C)c1C(=O)N1CCCC(C(=O)c2cccc(C(F)(F)F)c2)C1 (centres undefined)	18	i	-0.3	-1.1	2	-5	0.4	0.9	0.67	1
O=C(O)C(Cc1ccccc1)N1Cc2ccccc2C1=O (centres undefined)	-14	.	.	1.6	.	.	.	2.9	0.75	-6
COC(=O)C1CC(=O)c2sccc2C1 (centres undefined)	-4	.	.	6.8	.	.	.	-0.9	0.71	1
COc1ccc(NC(=O)CSc2nc3ccccc3cc2Cc2ccccc2)cc1	46	i	-5.4	3.3	6	8	2.1	0.7	0.76	1
CCC(C)NC(=O)CSc1nnc(-c2ccc(OC)c(OC)c2)c(-c2ccc(OC)c(OC)c2)n1 (centres undefined)	15	i	-2.8	3.1	10	8	-2.3	-0.6	0.7	0
CCOC(=O)N1CCN(Cc2nc(C3CC3)no2)CC1	-4	i	-1.3	3.6	10	4	7.6	0.8	0.7	0
CC1(C)CC(=O)C2=C(C1)NC(Nc1nc3ccccc3o1)=NC2c1ccccn1 (centres undefined)	12	.	0.2	-11	16	7	-0.2	0.6	0.73	-2
Cc1cc(/C=N/NC(N)=S)c(C)n1-c1ccc(Cl)c(Cl)c1	53	i	3.9	.	-3	-4	-0.2	1.5	.	32
CCCCN(CC)Cc1ccc(CNC(=S)Nc2ccccc2F)o1	11	.	-4.7	1.6	3	-2	4.6	0.3	0.66	-7
COc1ccccc1N1C(=O)CC(c2ccccc2)CC1=O	.	i	-1.5	14	4	7	-11	0.3	0.66	0
CC1CN(C(=O)c2cc(F)c(F)cc2Cl)CC(C)O1 (centres undefined)	7	.	.	4.0	.	.	.	0.9	0.75	-4
COc1ccc(Cc2c[nH]c(=O)[nH]c2=O)cc1	-1	.	.	4.2	.	.	.	0.6	0.71	-1
COC(=O)C1=C(C)Nc2c(c(=O)n(C)c(=O)n2C)C1c1ccc(C)cc1 (centres undefined)	0	.	-1.7	-6.8	13	6	2.4	-0.2	0.71	-1
COCCN(CCOC)c1nc(S(=O)(=O)c2ccc(C)cc2)c(Cl)s1	8	.	.	0.3	.	.	.	0.4	0.72	0
NCCCC[C@@H]1NC(=O)c2cc([N+](=O)[O-])cc(I)c2SC[C@@H](C(N)=O)NC(=O)[C@H](CCC(N)=O)NC1=O	-8	i	-1.6	2.1	16	-9	-11	1.3	.	-5
COC(=O)C1=NNC2(C)C(=O)N(c3ccc(C)cc3)C(=O)C12 (centres undefined)	-5	i	-0.6	1.7	0	0	-0.5	-0.1	0.58	-1
CCCn1c(Oc2ccccc2)nc2c1c(=O)n(C)c(=O)n2C	-6	i	-18	1.6	3	4	-0.7	-0.2	0.66	3
Cc1ccc2c(CC(=O)OCn3nnc4ccccc4c3=O)coc2c1	-3	.	.	5.6	.	.	.	-1.1	0.7	2
Cc1cccc2c(N=Nc3ccccc3)c(O)[nH]c12	8	i	-13	3.8	7	18	2.0	-1.1	0.68	0
Cc1ccc(-c2cc(C(=O)Nc3ccc(S(=O)(=O)Nc4onc(C)c4C)cc3)[nH]n2)c(O)c1	4	i	-3.9	-0.5	-46	-73	-26	-0.6	0.67	-3
C#CCOc1ccc(C2C3=C(COC3=O)Nc3cc4c(cc32)OCO4)cc1OC (centres undefined)	32	i	-0.9	-87	19	22	7.3	.	0.72	.
Cc1ccc(NC2=Nc3ccccc3CC2)cc1	27	.	.	-3.2	.	.	.	-5.6	0.7	0
O=C(Cc1ccc(Cl)cc1)N1CCC2(CC1)NCCc1[nH]cnc12	-7	i	-0.6	-1.2	9	5	5.2	0.4	0.71	-8
O=C(c1ccc2c(c1)OCO2)C1CCCN(Cc2ccccc2OC(F)F)C1 (centres undefined)	11	i	-5.6	-1.1	-1	-1	1.3	0.2	0.66	-3
Cn1cnc(C(=O)NCc2ccc(CNC(=O)OC(C)(C)C)cc2)c1C(=O)NCc1ccc(CNC(=O)OC(C)(C)C)cc1	.	.	.	3.3	.	.	.	-0.4	0.68	67
Cc1cccc([C@@H]2[C@@H]3C(=O)N(C)C(=O)[C@@H]3[C@@H]3C(=O)Nc4ccccc4C(=O)N23)c1	-25	i	-33	1.1	20	12	2.7	0.5	.	-1
COc1ccccc1N(CC(=O)Nc1cccc(C(F)(F)F)c1)S(C)(=O)=O	3	i	3.7	0.2	-25	-29	-4.7	0.1	0.67	.
COc1ccc(CN(C(=O)CNC(=O)c2ccco2)C(C(=O)NC2CCCC2)c2ccco2)cc1 (centres undefined)	-11	.	.	2.7	.	.	.	0.4	0.68	-1
O=C(CSCc1cnn(-c2ccccc2)c1-n1cccc1)N1CCN(Cc2ccccc2)CC1	45	.	.	4.1	.	.	.	0.0	0.67	-4
Cc1cc(C)c(S(=O)(=O)Nc2cc(SCC(=O)O)c(O)c3ccccc23)cc1C	-8	.	.	8.8	.	.	.	0.9	0.66	0
COC(=O)c1ccc(C(=O)OC)c(NC(=O)COC(=O)c2ccccc2OC)c1	-16	i	4.3	-18	4	5	-2.1	1.0	0.73	-1

Record cards, as listed above. Screens in order: T cruzi repl | FGF22 binding | MLL AF4-AF9 inh | UCH37 DUB inh | rRNA inh HTS | rRNA inh HTS OD600 | rRNA inh HTS RFP | A1 inh | Ecoli growth | Beta cell apopt
Profile of `COCCN(CCOC)c1nc(S(=O)(=O)c2ccc(C)cc2)c(Cl)s1` → 8 | . | . | 0.3 | . | . | . | 0.4 | 0.72 | 0
Profile of `O=S(=O)(NCCSc1nnnn1-c1ccccc1)c1cccs1` → 1 | . | . | -0.2 | . | . | . | 0.2 | 0.78 | .

Following part.
SMILES	T cruzi repl	FGF22 binding	MLL AF4-AF9 inh	UCH37 DUB inh	rRNA inh HTS	rRNA inh HTS OD600	rRNA inh HTS RFP	A1 inh	Ecoli growth	Beta cell apopt
Cc1cc(C)c(S(=O)(=O)N2CCCCC2CCNC(=O)C(=O)NCCN2CCOCC2)c(C)c1 (centres undefined)	18	i	1.5	.	10	5	4.0	-0.2	.	4
C=CCSc1nc2c(sc3nc(C)cc(C)c32)c(=O)[nH]1	13	.	.	-15	.	.	.	2.6	0.71	3
Cc1cc2c(cn1)C(CCC#N)(CCC#N)c1ccccc1-2	-7	i	-0.7	-2.2	-4	2	-4.1	0.4	0.7	-1
CCCCn1c(N)c(N(Cc2ccccc2OC)C(=O)COc2cc(C)ccc2Cl)c(=O)[nH]c1=O	7	i	-1.2	1.2	1	2	0.7	-0.4	0.63	-1
C#CCOCCOCCOCCNc1nc(N2CCN(C(=O)CCCCCCCCCCNC(=O)[C@H](CCCCN)n3cc(CCCC(=O)O)nn3)CC2)nc(N2CCN(C(=O)CCCCCCCCCCNC(=O)[C@H](CCCCN)n3cc(CCCC(=O)O)nn3)CC2)n1	-27	.	.	1.6	.	.	.	-0.5	.	-9
Cc1ccc2cccc(SCC(=O)NCC#N)c2n1	-22	i	-3.5	-64	12	8	0.3	0.2	0.7	10
CN(C(=S)NC(=O)C12CC3CC(CC(C3)C1)C2)c1ccc(O)cc1	.	i	-4.9	-0.5	0	-9	4.8	2.5	0.66	-1
Cc1ccc2c(CC(=O)Nc3c(C)n(C)n(-c4ccccc4)c3=O)coc2c1	-3	.	.	0.5	.	.	.	1.1	0.72	-7
COC(CNC(=O)c1ccc2c(c1)ncn2-c1cccc(C)c1)OC	-3	i	-1.2	3.7	-1	2	-0.5	-0.2	0.69	-2
COc1cccc(/C=C/c2nc(C#N)c(NCC(C)C)o2)c1	9	i	1.2	i	-14	-2	-3.2	-0.9	0.68	11
CCCNC(=O)c1c(CSc2ccc(Cl)cc2)noc1C(=O)NCc1ccccc1	27	i	-4.0	0.9	3	-7	9.8	1.8	0.72	4
O=C(NC(=S)NC1CCSC1=O)c1ccccc1 (centres undefined)	-9	i	-0.7	1.1	3	10	-3.1	0.8	0.63	-8
COc1cccc(OC)c1OCCCCN1CCCCC1	-2	i	-17	5.0	17	17	1.4	-0.1	0.7	.
O=C1COc2ccc(S(=O)(=O)N3CCN(c4ccccc4)CC3)cc2N1	0	i	-1.0	6.1	6	4	1.4	-0.5	0.66	-5
Cc1cc(NC(=O)CCCN2C(=O)c3cccnc3C2=O)no1	2	.	.	3.8	.	.	.	2.6	0.67	-8
CC(Sc1nnc(COc2ccc(Cl)cc2)n1Cc1ccccc1)C(=O)O (centres undefined)	-14	.	0.7	2.1	-20	-29	-3.6	0.0	0.74	-3
N/C(=N\OC(=O)COc1ccccc1Cl)c1ccc(Cl)cc1	15	.	.	5.0	.	.	.	0.1	0.76	-1
COc1ccc(N(C(C)=O)c2nc(C)cc(C)c2C#N)c(OC)c1	-11	.	-3.5	3.1	13	16	-2.2	0.1	0.69	0
c1ccc(-c2nccnc2-c2ccccc2)cc1	-11	i	-1.3	2.6	.	.	.	-0.1	0.7	.
COC(=O)c1cc(NS(=O)(=O)c2ccc(N3CCOCC3)c([N+](=O)[O-])c2)cc(C(=O)OC)c1	-14	i	1.3	4.1	-6	-6	6.9	-0.5	0.71	-4
CC(=O)Nc1cccc(NC=C(C#N)C#N)c1	0	i	2.2	4.2	5	12	2.2	0.1	0.66	0

Assay outcomes as filed in PubChem BioAssay.
